TRPML1 agonist = agonists of human TRPML1 channel; TRPML1-expressing cells, Ca2+ dye fluorescence, FDSS; host cell line not named in the record; reference of the full effect not given here; Q9GZU1; 0.12% of 410,000 active; activation, % (test concentration not listed); in the data active = activation above about 50%; inconclusive = about 30% to 50%; inactive = below about 30%; also: 0% is about no effect; the text of the record puts the active cut at 80%
Target sequence (Q9GZU1 whole entry, looked up): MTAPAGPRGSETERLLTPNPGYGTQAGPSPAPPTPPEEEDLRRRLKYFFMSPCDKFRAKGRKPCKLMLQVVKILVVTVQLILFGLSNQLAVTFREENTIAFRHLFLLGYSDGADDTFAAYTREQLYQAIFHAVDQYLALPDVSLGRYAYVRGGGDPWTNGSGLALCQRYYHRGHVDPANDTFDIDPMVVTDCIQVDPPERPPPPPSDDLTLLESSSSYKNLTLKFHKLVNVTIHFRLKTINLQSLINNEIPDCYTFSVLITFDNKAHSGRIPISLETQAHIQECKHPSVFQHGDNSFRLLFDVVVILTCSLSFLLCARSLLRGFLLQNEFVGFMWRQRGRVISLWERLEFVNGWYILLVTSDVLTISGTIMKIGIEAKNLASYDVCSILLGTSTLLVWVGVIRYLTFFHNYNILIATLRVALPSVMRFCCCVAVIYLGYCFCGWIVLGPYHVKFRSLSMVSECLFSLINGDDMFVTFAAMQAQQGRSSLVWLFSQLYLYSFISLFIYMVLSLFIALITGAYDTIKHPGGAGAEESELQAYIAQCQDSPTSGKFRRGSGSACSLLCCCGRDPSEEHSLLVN
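Kinetic FDSS Ca2+ read in Tet-induced TRPML1-DL cells (ABD Ca8 dye plus quencher, 45-90 min RT loading): baseline, then compound, then 110 s agonist window; EC80 agonist 54-4 at 4uM final added afterwards for a 110 s antagonist window.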
Menin MLL FP FL = displaces fluorescein MLL peptide from human menin; Fluorescence polarization, fluorescein-MLL peptide displacement from menin; FP activity change, % at 61.4 µM; 290,000 tested, under 10 active; inconclusive = falling polarisation curve, or a change in total fluorescence; inactive = total fluorescence flat and polarisation flat or rising; no compound was filed as active; the % refers to the polarisation; negative = inhibition;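 also: % of control where 0% means no effect; inhibitors lower the polarisation; unlabelled MLL peptide was the positive control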
Sfp PPTase inh = inhibitors of Bacillus subtilis Sfp phosphopantetheinyl transferase; AID 1490; Q9F4F7; Potency, µM, for the others: max response, negative = inhibition, actives largely listed as inhibitors; 3.5% of 310,000 active; Biochemical Sfp PPTase activity, qHTS; active = well fitted inhibition curve with a large enough effect; inconclusive = small, poorly fitted or top-dose-only effect, or another doubt; inactive = no such curve, though single readings can be large or run the other way;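 also: the enzyme is Sfp with the accession as filed and its product quenches rhodamine fluorescence; potency is read from the fitted curve at half-maximal effect; 0% = enzyme reaction without inhibitor and -100% = no enzyme wells; top concentration of the series not given in the record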
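Sfp 15 nM + cpd, 15 min RT; start w/ rhodamine-CoA 5 uM, BHQ-2-YbbR 12.5 uM (final); 50 mM Hepes pH 7.6, 10 mM MgCl2, 0.01% NP-40, 0.01% BSA; read 525/598 nm at 0 and 30 min.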
TRPV1 PAM = enhances activation of the human vanilloid receptor TRPV1. AID 540277. potentiation, % at 8.33 µM. TRPV1-expressing cells, Fluo-8 calcium influx, capsaicin EC20 potentiation; host cell line not named in the record; control for the full effect not named in the record. 0.02% of 320,000 active; active means potentiation above 80%; inconclusive means 30% to 80%; inactive means below 30%; also: 0% is about no effect
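Fluo-8 calcium influx in TRPV1-expressing cells, kinetic read (ex 480/em 520 nm). Compound added and read 3 min for agonist activity, followed by capsaicin at EC20 final and 2 min further read for enhancement.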
TRPML1 blocker = human mucolipin-1 channel inhibition; Q9GZU1; TRPML1-inducible cells, Ca2+ dye fluorescence, FDSS; hits give low values; inhibition of EC80 agonist-evoked calcium signal; activity change, negative = inhibition, % (concentration not given with the values); 0.02% of 390,000 active; AID 624415; in the data active means activity change below about -50%; inconclusive means about -30% to -50%; inactive means above about -30%;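 also: stimulus is agonist 54-4 at its EC80 concentration; % is scaled to controls: 0 for no effect and ±100 for the full control effect; compound concentration not given in the record; the text of the record puts the active cut at -80%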
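Calcium fluorescence in TRPML1-DL cells induced overnight with Tet: a 110 s read after compound pin addition, then a 110 s antagonist read after challenge with 54-4 at 4 uM final (EC80).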
PINK1 modulator = modulators of PINK1 expression. PINK1 immunofluorescence, high-content cytometry, 24 h. Potency, µM (series often up to 76.6 µM), for inactives: at the highest dose activation (PINK1 increase), hits mostly activators. 0.2% of 410,000 active. AID 624263; active = well fitted activation curve with a large enough effect; inconclusive = small, poorly fitted or top-dose-only effect; inactive = flat fitted curve, though single readings scatter; cell line not stated here;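 also: potency is read from the fitted curve at half-maximal effect; % of control where 0% means no effect; nearly all actives have a fitted effect of over 65% in size; a mitochondrial uncoupler was the plate control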
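Decision-based qHTS: stable cells, 24 h exposure to five compound concentrations, CCCP as control. Fixed cells stained for PINK1 plus nuclear, mitochondrial and cell markers, cytometer read.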
ClpP mod = qHTS Assay for Activators of ClpP; AID 651965, 2013; ATP-dependent Clp protease proteolytic subunit (Bacillus subtilis (strain 168)), P80244; 1.9% of 340,000 active; Potency, µM (doses to about 57.5 µM), for inactives: top-dose activity change, negative = active; purified B. subtilis ClpP, FRET peptide cleavage, 20 min; active = well fitted falling curve with a large enough effect; inconclusive = small, poorly fitted or top-dose-only effect; inactive = no such curve, though single readings can be large or run the other way; also: potency is read from the fitted curve at half-maximal effect; the source files actives as falling curves though it sought activators and does not explain the sign; nearly all actives have a fitted effect of over 65% in size; many hits overshoot -100%
Target sequence (P80244 whole entry, looked up): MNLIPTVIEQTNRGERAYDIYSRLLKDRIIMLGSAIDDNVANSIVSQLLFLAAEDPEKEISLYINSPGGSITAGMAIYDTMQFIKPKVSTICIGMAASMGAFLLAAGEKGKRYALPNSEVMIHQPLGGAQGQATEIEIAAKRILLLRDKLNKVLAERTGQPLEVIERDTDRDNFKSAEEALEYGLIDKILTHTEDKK
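FRET quenching reversal measured ClpP activation: 10 microg/mL B. subtilis ClpP at pH 8 with the FRET-FV decapeptide, read at 430 nm after 320 nm excitation. The 20-min minus 0-min signal was scaled between DMSO/no-enzyme wells and ADEP (5.8 microM final).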
Active calls of the source: *; ? = inconclusive; · = not tested or not shown; & = joins results of further samples; [ ] = remark or other dose.

SMILES	TRPML1 agonist	Menin MLL FP FL	Sfp PPTase inh	TRPV1 PAM	TRPML1 blocker	PINK1 modulator	ClpP mod
CC(Sc1nncn1C)C(=O)Nc1ccccc1-c1ccccc1 (stereo not given)	0.3	1.4	14%	1	-7	1.5%[38.3 µM]	-2.9%
C=C1CC(C)OC(c2ccccc2OCC(O)CN2CCCCC2)C1 (stereo not given)	0.0	-0.1	-12%	-10	5	-0.5%	1.1%
CC(C)NC(=O)C1CCN(C2CCN(CC3CC=CCC3)CC2)CC1 (stereo not given)	0.4	-0.6	21%	2	17	0.6%	·
Brc1ccc(-c2csc(N3CCCCCC3)n2)cc1	-0.1	-1.0	-14%	3	9	7.7%	·
CCOc1cc(-c2sc(Nc3ccc(CC)cc3)n[n+]2-c2ccccc2)ccc1OC	-0.5	·	·	-9	3	2.0%	0.5%
CCOC(=O)c1c(NC(=O)C(Sc2ccccc2)c2ccccc2)sc(C(N)=O)c1C (stereo not given)	-0.1	0.5	-7%	16	26	5.8%	-0.4%
Brc1ccc(-c2ccc(CNCc3ccccn3)o2)cc1	·	-1.1	-16%	-7	·	1.2%	6.1%
NC(=O)CSc1nnc(CSc2ncccn2)n1-c1ccccc1	-0.4	-0.9	18%	-6	-3	1.1%	·
COc1cccc(NC(=O)Cc2nnc(SCC(=O)NC3CCCCC3)n2C)c1	-0.3	-12	5%	-11	-4	2.4%	·
O=[N+]([O-])c1ccc(/C=N/NC(=S)Nc2ccccc2F)o1	-0.2	8.7	-12%	2	-2	-1.1%	-0.4%
CCOCCCNC(=O)CN1N=C(c2ccc(C)cc2)CCC1=O	2.5	-3.4	-3%	-6	-27	-2.6%	-3.0%
CC1CCC(NC(=O)CN(C)S(=O)(=O)c2cnc[nH]2)CC1 (stereo not given)	0.3	-1.0	17%	-2	-6	-0.7%	-0.3%
N/C(=N\OCc1ccc([N+](=O)[O-])cc1)c1ccccn1	0.4	-2.9	-11%	6	21	2.7%	·
COc1ccc(C(=O)Nc2nc3ccc(OC)cc3s2)cc1	1.2	-0.9	-6%	-7	-11	3.8%	3.6%
CCc1cc2c(cc3c(=O)n(CC(=O)NC(C)c4ccccc4)ncn32)s1 (stereo not given)	1.2	·	·	·	0	0.1%	-11%
O=C(Nc1ccc(F)c(Cl)c1)C1CC2CCC1C2 (stereo not given)	0.2	·	·	·	1	?	·
CC1CCC2C(=O)N(c3cc(Cl)ccc3OC(=O)c3ccco3)C(=O)C2C1 (stereo not given)	0.0	3.8	30%[activator]	-2	-23	1.9%	·
Cc1c(NC(=O)c2ccc3c(c2)OCO3)cccc1-c1nc2ncccc2o1	-0.1	-0.1	9%	-20	-14	3.4%	0.1%
CCOC(=O)c1ccc(NC(=O)c2cc(S(=O)(=O)N3CCOCC3)ccc2O)cc1	-0.2	3.4	14%	14	6	2.2%	?
COc1cc(-c2noc(C)c2-c2ccc3[nH]ccc3c2)cc(OC)c1OC	0.3&-0.4	0.4	3%	9	48	6.1%	-2.0%&0.7%
Cc1cccc(NC(=O)C2COc3ccccc3O2)n1 (stereo not given)	1.1	1.6	-24%	-9	14	1.8%	2.7%
Cc1cc(=O)oc2cc(OC(C)C(=O)Nc3ccc(N4CCCCC4)cc3)ccc12 (stereo not given)	2.9	·	5%	-9	-5	?	-1.5%
O=c1nc2n(Cc3ccccc3)c3ccccc3cc-2c(=O)[nH]1	·	2.7	-27%	20	·	·	·
COc1ccc(-n2ncc3c(N4CCC(C)CC4)ncnc32)cc1	0.5	-3.3	-11%	-12	77	5.0%	-9.2%
COc1ccc(-n2c(SCC(=O)Nc3ccccc3)nnc2-c2ccoc2C)cc1	3.9	·	·	·	-3	1.6%	-1.9%
O=C(N/C(=C\c1ccc(F)cc1)C(=O)N1CCOCC1)c1ccccc1	-0.1	0.3	15%	-30	-3	1.1%	·
O=C(COc1ccc2c3c(c(=O)oc2c1)CCC3)N1CCN(c2ccccc2)CC1	0.5	·	0%	19	0	2.3%	·
CCOC(=O)c1cc(C(C)=O)n2ccccc12	0.6	6.6	3%	-6	-7	4.2%[38.3 µM]	-2.1%
Cn1c(=O)[nH]c(=O)c2c1[nH]c(=S)n2Cc1ccc(Cl)cc1	-0.6	-3.5	8.9µM*	?	-4	3.9%	-1.6%
COc1ccc(NS(=O)(=O)c2cccc(C(=O)NNC(=O)c3cc(C)oc3C)c2)cc1	0.3	4.3	26%	-1	-8	1.3%	1.0%
CC(C)(C)S(=O)N1Cc2cc(=O)n(Cc3ccccc3)cc2[C@@H]1CCO (stereo not given in full)	4.9	·	·	·	-8	0.4%	-27%
CC(C)OP(=O)(OC(C)C)C(NC(=O)c1cccc([N+](=O)[O-])c1)C(N)=O (stereo not given)	0.0	5.0	11%	9	9	-1.1%	-0.3%
C=CCn1c(C)cc(C(=O)CSc2nc3ccccc3c(=O)[nH]2)c1C	1.0	4.7	?	8	-11	4.8%	0.3%
CCCCN(C(C)=O)c1c(CC)nc2ccc(C(=O)Nc3cccc(OCC(=O)N(C)C)c3)cn12	-0.8	·	·	·	·	0.1%	-3.4%
OCCN(CCO)c1ncnc2c1oc1ccc(Br)cc12	-0.1	2.0	13%	-9	-12	-0.9%	-11%
CCC(C)C(=O)Nc1nnc(SCC(=O)N2C(C)CCCC2C)s1 (stereo not given)	-0.5	-3.4	-4%	3	0	2.1%	-5.1%
CC/C=C(/NC(C)=O)c1ccccc1	-0.6	·	·	-11	20	-0.1%	-0.1%
Cc1cccc(C(=O)Nc2ccc(C(=O)OCc3cc(=O)n4c5c(sc4n3)CCCC5)cc2)c1	1.4	·	·	·	-7	-0.5%	-5.5%
CC(=O)c1ccc(Oc2cc(-c3ccccc3)nc(-c3ccccc3)n2)cc1	1.4	2.4	8%	1	26	25%	-1.6%
Cc1ccc(C(=O)OCc2cc(=O)n3ccsc3n2)s1	-0.6	·	·	·	-4	0.3%	1.8%
Cc1[nH]cnc1CSCc1ccc(Cl)cc1	-1.6	1.7	0%	9	-12	3.1%	-6.0%
CC1Cc2ccccc2N1CC(=O)NC(=O)NCc1ccco1 (stereo not given)	0.8	-0.7	1%	-17	14	0.4%	0.1%
CC(NC(=O)C(C)N1CCN(S(=O)(=O)c2ccccc2)CC1)c1ccccc1 (stereo not given)	0.3	·	·	6	20	-0.2%	0.6%
COc1ccc(CNC(=O)c2n[nH]c3ccccc23)cc1OC	-1.3	-5.5	21%	2	5	-0.1%	·
O=C(NCC(=O)N1CCCCCCC1)c1ccco1	1.0	·	·	-10	7	0.1%	-1.5%
O=C(CN(Cc1ccco1)C(=O)c1cc(=O)[nH]c2ccccc12)Nc1ccccc1C(F)(F)F	-1.2	1.5	2%	-9	2	-1.0%	-28%
CCC(C)(C)NC(=O)CN(C(=O)C(=O)Nc1ccc2c(c1)OCCO2)N1CCOCC1	1.2	-0.4	8%	11	-6	-1.0%	·
Cc1ccc2c(c1)C(c1ccncc1)=NNC(c1cccnc1)=N2	-0.5	-1.3	-3%	1	-12	0.7%	·

Looked up by structure from the list above:
SMILES	TRPML1 agonist	Menin MLL FP FL	Sfp PPTase inh	TRPV1 PAM	TRPML1 blocker	PINK1 modulator	ClpP mod
O=C(NCC(=O)N1CCCCCCC1)c1ccco1	1.0	·	·	-10	7	0.1%	-1.5%
CC(=O)c1ccc(Oc2cc(-c3ccccc3)nc(-c3ccccc3)n2)cc1	1.4	2.4	8%	1	26	25%	-1.6%
Cc1[nH]cnc1CSCc1ccc(Cl)cc1	-1.6	1.7	0%	9	-12	3.1%	-6.0%
Cc1ccc(C(=O)OCc2cc(=O)n3ccsc3n2)s1	-0.6	·	·	·	-4	0.3%	1.8%
CC/C=C(/NC(C)=O)c1ccccc1	-0.6	·	·	-11	20	-0.1%	-0.1%
CC1Cc2ccccc2N1CC(=O)NC(=O)NCc1ccco1 (stereo not given)	0.8	-0.7	1%	-17	14	0.4%	0.1%

Other compounds
SMILES	TRPML1 agonist	Menin MLL FP FL	Sfp PPTase inh	TRPV1 PAM	TRPML1 blocker	PINK1 modulator	ClpP mod
N#C/C(=C\C=C\c1ccccc1)C(=O)NCc1ccco1	-0.5	2.7	9%	-10	15	0.4%	-0.4%
O=C(NCCc1ccccc1)C1CCCN1C(=O)Nc1cccc(Cl)c1 (stereo not given)	-0.2	-3.1	-4%	-9	3	0.1%	-0.5%
Cc1ccc(C(=O)c2cc([N+](=O)[O-])ccc2N2CCN(C)CC2)cc1	-0.9	-0.1	15%	-6	14	13%	0.6%
CCc1cccc(NC(=O)c2c(N3CCCC3=O)c3cc(C)ccc3n2C)c1	2.7	·	·	·	-9	1.1%	-24%
CC(C)CC1NC(=O)N(CC(=O)N(C)C2CCCCC2)C1=O (stereo not given)	0.3	·	·	·	-5	-1.3%	2.5%
CS(=O)(=O)N(CC(=O)NCCSCc1c(F)cccc1Cl)c1cccc([N+](=O)[O-])c1	-1.6	-0.3	-9%	-3	8	1.0%	-0.6%
CN(Cc1cn(C)nc1-c1ccc(Oc2ccccc2)cc1)CC1COCCO1 (stereo not given)	-0.3	7.9	?	8	-1	1.0%	1.1%
O=C(c1ccncc1)N1CCC2(CC1)CN(c1ncccn1)C2	·	-5.4	2%	·	·	-1.1%	·
CCC1=Nc2cc(C(=O)NCCCN3CCOCC3)ccc2Sc2ccccc21	0.5	1.0	1%	-21	10	-1.3%	-2.0%
O=C(c1ccc(F)cc1)C1CCN(C(=S)Nc2ccccc2Cl)CC1	4.1	-1.5	6%	-5	3	-0.8%	-1.5%
Cc1ccc(C(C)C)c(OCc2nn(CC(=O)c3ccc(OC(F)F)cc3)c3[n+]2CCCCC3)c1	0.4	1.8	-10%	?	4	-2.3%	·
CON(c1nc(N(C)C)nc(N(C)C)n1)S(=O)(=O)c1ccccc1Cl	2.1	1.3	-10%	-9	6	6.0%[38.3 µM]	-2.3%
CCOC(=O)C(=O)Nc1nnc(SCc2ccc(F)cc2)s1	3.2	-2.6	-12%	-8	-7	-1.5%	-0.1%
Cc1cc(C)cc(OCC(=O)Nc2ccc(N3CCCC3)cc2)c1	0.0	0.5	56µM*	-2	-2	3.5%[38.3 µM]	1.2%

Compound activity as filed in PubChem.
